AmpC inh no det: Promiscuous and Specific Inhibitors of AmpC Beta-Lactamase (assay without detergent); AmpC nitrocefin hydrolysis, absorbance 480 nm, no detergent; potencies from a single point are estimates; Potency, µM (series often up to 28.7 µM), for inactives: top-dose activity change, negative = inhibition; P00811; actives 1.8% (n = 71,000); active = falling curve, for most hits resting on a single point; inconclusive = weak or doubtful change; inactive = flat or rising curve; also: % of control where 0% means no effect; about half of the hits show no inhibition at the top dose; a quarter of the inactives give rising signals
Target sequence (P00811 whole entry, looked up): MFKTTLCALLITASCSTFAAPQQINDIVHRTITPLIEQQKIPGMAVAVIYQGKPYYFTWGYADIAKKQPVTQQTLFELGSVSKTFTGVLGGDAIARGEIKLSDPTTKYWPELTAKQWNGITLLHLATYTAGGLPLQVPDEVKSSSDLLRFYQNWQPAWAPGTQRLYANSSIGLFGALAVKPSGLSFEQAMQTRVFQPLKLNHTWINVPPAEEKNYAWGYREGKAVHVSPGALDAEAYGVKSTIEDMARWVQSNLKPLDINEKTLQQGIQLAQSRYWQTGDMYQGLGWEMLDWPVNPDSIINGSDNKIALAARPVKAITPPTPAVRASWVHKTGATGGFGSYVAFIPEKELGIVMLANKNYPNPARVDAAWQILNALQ
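AmpC in 20 mM phosphate buffer pH 7.0 was preincubated 15 min at room temperature with compounds. Nitrocefin (800 uM stock) was then added and hydrolysis followed at 480 nm every 20 s for 4 min.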
Starred values were filed as active, the others as inactive; ? = inconclusive; [ ] = remark or other dose. Potency is read from the fitted curve at half-maximal effect. This is a subset, so the mix of outcomes need not match the whole.

SMILES	AmpC inh no det
CCOC(=O)C1CCCN(Cc2ccccc2C)C1 (stereo unspecified)	-16.1%
Oc1c(Cl)cc(Cl)cc1CN1CCN(Cc2ccccc2)CC1	27.7%
c1ccc(-c2cc(-c3nc(-c4ccccn4)no3)c3ccccc3n2)cc1	-3.1%
O=C(O)CCn1nnc(-c2cccs2)n1	-7.3%
CN1CCN(C(c2cccnc2)c2ccc3cccnc3c2O)CC1 (stereo unspecified)	16.8%
Cc1ccc(C2=Nc3ccccc3S[C@@H](c3cccc([N+](=O)[O-])c3)C2)cc1	-14.1%[5.75 µM]
CC(C)(C)N(Cc1cc2ccccc2[nH]c1=O)C(=O)C1CCCCC1	8.9%
CC(NS(C)(=O)=O)C(c1cccs1)N1CCN(C)CC1 (stereo unspecified)	-10.3%
CCC(NC(=O)NCc1ccc2c(c1)OCO2)(C(F)(F)F)C(F)(F)F	-13.1%
Cn1c(=O)c2c(nc(CN3CCCCC3)n2CCc2ccccc2)n(C)c1=O	46.6%
O=C(COc1ccc(Cl)cc1)N1CCN(Cc2ccccc2)CC1	91.7%
COc1ccc(-n2nnnc2SCC(=O)c2ccc3c(c2)OCCO3)c(OC)c1	-23.8%
CC(=O)NC(Cc1ccc(F)cc1)C(=O)NC1CCN(c2nnnn2-c2ccccc2)CC1 (stereo unspecified)	93.6%
CCOc1ccc(C2C(C(=O)O)c3ccccc3C(=O)N2CCN2CCOCC2)cc1 (stereo unspecified)	0.0%
O=C(O)c1cc(-c2ccc(Cl)cc2)n[nH]1	-8.5%
CCN(CC)c1ccc(NC(=O)c2cncc(Br)c2)cc1	-7.5%
O=C(OCCCc1ccncc1)c1ccc(S(=O)(=O)N2CCOCC2)cc1	45.5%
CCCOC(=O)CSc1nc(N)c(C#N)c(CC)c1C#N	-9.0%
CCOC(=O)C1=C(N)OC2=C(C(=O)CCC2)C1c1cccs1 (stereo unspecified)	13.3%
COc1ccc(OCc2nn3c(-c4ccccn4)nnc3s2)cc1	16.2%
COc1ccc(Cc2n[nH]c(=O)c3ccccc23)cc1OC	-6.8%
CCCc1cc(=O)[nH]c(SCc2ccccc2)n1	-0.5%
O=C(Nc1ccc(CN2CCOCC2)cc1)c1ccc(-c2ccc(Br)cc2)o1	119.5%
CCC(=O)Nc1ccc(Cl)c(NC(=O)c2cccnc2)c1	-3.1%
COC(=O)Nc1cccc(OC(=O)Nc2cccc(C)c2)c1	-14.1%
CCOC(=O)c1c(C)oc2c1cc(O)c1ccccc12	4.8%
CCCOC(=O)C1=C(C)NC2=C(C(=O)CCC2)C1c1ccc(N(C)C)cc1 (stereo unspecified)	38.9%
NC(=O)CSCc1cccc(Br)c1	0.3%
CCC(=O)Nc1cc(-c2nn3c(C)nnc3s2)ccc1C	-4.7%
CCn1nnc(-c2ccccc2NC(=O)c2ccc(-n3cnnn3)cc2)n1	47.3%
COc1ccc(CC(=O)N2CCN(C(=O)Cc3ccc(OC)cc3)CC2)cc1	53.6%
CCOc1ccc(N2C(=O)CC(Sc3nc(C)cc(C)n3)C2=O)cc1 (stereo unspecified)	55.1%
CSc1ncccc1C(=O)OCc1ccccc1	4.5%
O=C(O)c1ccc(CSCc2c(F)cccc2Cl)o1	-8.1%
COc1ccc(-c2cn3cc(Cl)ccc3n2)cc1OC	30.6%
CC(C)[C@H](Nc1ncnc2nc[nH]c12)C(=O)O	1.9%[5.75 µM]
CCOC(=O)CCc1c(C)nc2cc(C3CCCN(C(=O)OC(C)(C)C)C3)[nH]n2c1=O (stereo unspecified)	33.1%
COc1ccc(C(=O)N2CCC3(CCCN(c4ccncc4)C3)CC2)cc1	7.0%
CCOC(=O)Cc1c[nH]c2ccccc12	2.9%
CCCS(=O)(=O)N1CCCC(C(=O)NCCCOCC)C1 (stereo unspecified)	-4.4%
CCN(C(=O)c1sc(N)c(C#N)c1C)C1CCCCC1	0.4%
COc1ccc(C2CC(=O)N3CN(c4ccc(C)c(Cl)c4)CSC3=C2C#N)cc1OC (stereo unspecified)	5.9%
O=C(O)CSc1n[nH]c(=O)[nH]c1=O	-1.7%[5.75 µM]
CCCC(=O)Nc1c2c(nn1-c1ccc(OC)cc1)CS(=O)C2 (stereo unspecified)	1.9%
COc1ccc(C(=O)N2CCN(c3nc4cc(C)ccc4cc3C#N)CC2)c(OC)c1	146.7%
Cc1cc(O)c(C(C)C)cc1CN1CCCCC1	-5.5%[5.75 µM]
O=C1C(C2=C(O)c3ccccc3C2=O)=Nc2ccccc21	12.6µM*
COc1ccc(N2C(=O)CC(N3CCN(S(=O)(=O)c4c(F)cccc4F)CC3)C2=O)cc1OC (stereo unspecified)	57.9%
CCOc1cc(C)c(S(=O)(=O)Nc2ccc(Cl)cn2)cc1C	1.9%
O=S(=O)(c1ccccc1)N1CCC2(CC1)CN(c1ccccc1)C2	27.4%

An excerpt of these results, with each value named:
compound: COC(=O)Nc1cccc(OC(=O)Nc2cccc(C)c2)c1
- AmpC inh no det = -14.1%
compound: CCOC(=O)c1c(C)oc2c1cc(O)c1ccccc12
- AmpC inh no det = 4.8%
compound: CCCOC(=O)C1=C(C)NC2=C(C(=O)CCC2)C1c1ccc(N(C)C)cc1 (stereo unspecified)
- AmpC inh no det = 38.9%
compound: NC(=O)CSCc1cccc(Br)c1
- AmpC inh no det = 0.3%

Other records follow:
SMILES	AmpC inh no det
CCc1c2c(nc3cccc(OC)c13)OC(CC)C2 (stereo unspecified)	14.5%
COCC(C)N=CC1=C(O)CC(C)(C)CC1=O (stereo unspecified)	6.3%
O=c1cc(CN2CCN(Cc3ccccc3)CC2)c2cc(Cl)ccc2o1	52.4%
CCCCn1nnnc1NCc1ccc(N2CCCC2)cc1	-1.1%
COc1ccc(C)cc1NC(=O)CSc1nnc(-c2ccc(OC)c(OC)c2)n1N	59.4%
CCc1nnc(SCc2ccc(OC)c(Br)c2)n1N	-0.1%
CC(C)c1ccc(NC(=O)NC2CCCCC2)cc1	-12.9%
Cc1ccc(C(=O)NCC(=O)OCC(=O)c2c(N)n(C)c(=O)n(C)c2=O)s1	-3.8%
Cc1ccc(S(=O)(=O)CC2CSc3nnc(C)c(=O)n32)cc1 (stereo unspecified)	11.6%
CCCCn1cnc2c1c(=O)n(C)c(=O)n2C	2.3%
O=C1CC(N2CCN(c3nc4ccccc4s3)CC2)C(=O)N1c1ccc(F)cc1 (stereo unspecified)	139.1%
COCCNC(=O)CN(C(=O)CCC(=O)Nc1ccccn1)c1ccc(F)cc1	-3.0%
COc1ccc(NCC(=O)Nc2ccc(Cl)cc2C)c(OC)c1	21.5%
O=C(CSC1=Nc2ccccc2C2=NC(CC(=O)NCc3ccco3)C(=O)N12)NCC1CCCO1 (stereo unspecified)	2.7%
O=C(NC1CCN(Cc2ccccc2)CC1)C1COc2ccccc2O1 (stereo unspecified)	-1.7%
Cc1nccn1-c1ccc(C(F)(F)F)cc1NC=O	5.7%
COc1ccc(CNc2nc(-c3ccoc3)nc3ccccc23)c(OC)c1	21.9%
Cc1cc(Cl)ccc1OCc1nc(-c2ccc(O)cc2)n[nH]1	-19.9%
CCOC(=O)C1=C(c2ccccc2)Nc2ncnn2C1c1cc(OC)cc(OC)c1OC (stereo unspecified)	64.8%
CCN1CCCC1CNS(=O)(=O)c1cc(Br)cc2c1N(C(=O)C1CC1)CC2 (stereo unspecified)	13.0%

The final six compounds of the part above come first, to join the parts:
SMILES	AmpC inh no det
O=C(NC1CCN(Cc2ccccc2)CC1)C1COc2ccccc2O1 (stereo unspecified)	-1.7%
Cc1nccn1-c1ccc(C(F)(F)F)cc1NC=O	5.7%
COc1ccc(CNc2nc(-c3ccoc3)nc3ccccc23)c(OC)c1	21.9%
Cc1cc(Cl)ccc1OCc1nc(-c2ccc(O)cc2)n[nH]1	-19.9%
CCOC(=O)C1=C(c2ccccc2)Nc2ncnn2C1c1cc(OC)cc(OC)c1OC (stereo unspecified)	64.8%
CCN1CCCC1CNS(=O)(=O)c1cc(Br)cc2c1N(C(=O)C1CC1)CC2 (stereo unspecified)	13.0%
Cc1ccc(C(=O)Nc2cccc(C(=O)O)c2)cc1S(=O)(=O)N1CCCCC1	-6.9%
CCCCC(=O)Nc1cccc(NC(=O)c2ccc(Br)o2)c1	-15.0%
CCOC(=O)C1(C)NC(c2cc(OC)c(OC)c(OC)c2)C2C(=O)N(CC)C(=O)C21 (stereo unspecified)	2.7%
CNc1nc(C)nc(-n2nc(C)cc2C)n1	-6.1%
C=CCNc1sc(C(=O)c2cccs2)c(N)c1C#N	-6.2%
c1csc(-c2nnsc2-c2nc3ccccc3[nH]2)c1	?
COc1ccc(-c2cc(C(=O)Nc3c(C)nn(Cc4ccc(Cl)cc4)c3C)no2)cc1	5.8%
CC(=O)N(CC(C)(C)CC=C(C)C)c1ccccc1	63.9%
Cc1onc(-c2c(F)cccc2Cl)c1C(=O)N1CCCc2ccccc21	37.4%
COc1ccc(S(=O)(=O)N(CC(=O)NCc2ccco2)c2ccccc2)cc1OC	26.0%
CO	-0.1%
C=CCC(O)(CCN1CCCCC1)c1ccccc1 (stereo unspecified)	-8.6%
O=C(O)c1ccc(COc2ccc(Cl)cc2)o1	-12.7%
CCOC(=O)c1nn(-c2ccccc2)c(C#N)c1NC(=O)c1nn(CC)cc1Br	49.4%
CN1CCC2(CC1)NC(=O)NC2=O	-9.4%
O=C(COn1nnc2ccc(C(F)(F)F)cc21)Nc1nnc(-c2ccccc2)o1	-4.9%
N=c1ccn2c(n1)O[C@H]1[C@H](O)[C@@H](CO)O[C@H]12	1.0%
Cc1occc1C(=O)Nc1cc(C(F)(F)F)ccc1Cl	-7.6%
COc1cccc(C2=NOC(C(=O)Nc3cccnc3)C2)c1 (stereo unspecified)	15.5%
COc1ccc(C(=O)c2coc3ccc(O)c(CN4CCCCC4)c23)cc1	29.6%
Cc1ccc(S(=O)(=O)N=C2SCCCS2)cc1	1.1%
COc1ccc(OC)c(NC(=O)CS(=O)(=O)Cc2nc(-c3ccccc3C)oc2C)c1	47.6%
COc1ccc(C2C(C#N)=C(/N=C/N3CCN(C)CC3)OC3=C2C(=O)CC(C)(C)C3)cc1OC (stereo unspecified)	132.0%
CC1CCN(C(=O)CSc2nc3c(cnn3-c3ccc(Cl)cc3)c(=O)[nH]2)CC1	3.6%
COc1ccc(OC)c([C@H]2Nc3ccccc3NC3=C2C(=O)CC(C)(C)C3)c1Br	73.8%
CC1CCCC(NC(=O)c2ccc3c(c2)N(Cc2ccccc2)C(=O)CS3=O)C1C (stereo unspecified)	80.1%
CCC(=O)n1nc(-c2ccc(OC)cc2)nc1N	9.2%
CCOc1ccc(-c2nnn(CC(=O)Nc3cc(OC)ccc3OC)n2)cc1OCC	6.2%
COc1cc(-c2c(C#N)c(N)nc3c2CCCC3)cc(OC)c1OC	95.9%
COCCn1nnnc1C(c1cc2ccc(OC)cc2[nH]c1=O)N1CCc2ccccc2C1 (stereo unspecified)	44.1%
CC1=C(C(N)=O)C(c2ccccn2)n2nc(SCc3ccccc3Cl)nc2N1 (stereo unspecified)	15.6%
COC(=O)c1ccccc1NC(=O)n1cc(C)cn1	6.9%
CCCc1cc(=O)n2c(nc3ccccc32)[nH]1	-3.2%
N#CCCN(C(=O)CN1C(=O)NC2(CCCC2)C1=O)c1ccccc1F	15.7%
N[C@H](Cn1cc(I)c(=O)[nH]c1=O)C(=O)O	1.6%
COC(=O)c1ccc(C2/C(=C(/O)c3ccc(OC)cc3)C(=O)C(=O)N2CC2CCCO2)cc1 (stereo unspecified)	7.5%
Cc1cc(C(=O)NCc2ccc(S(N)(=O)=O)cc2)cs1	-7.5%
C=CCOC(=O)c1sc(NC(=O)c2ccco2)nc1C	-16.4%
OC(c1ccc2c(c1)OCO2)c1nccc2ccccc12 (stereo unspecified)	-2.1%
CCc1ccc(N2C(=O)C3ON(c4ccccc4)C(c4ccco4)C3C2=O)cc1 (stereo unspecified)	8.5%
O=C(c1ccncc1)N1CCC2(CCCN(c3ccccc3)C2)CC1	92.5%
O=C(CCC1COc2ccccc2O1)N1CCCC1 (stereo unspecified)	11.4%
CN(C)C(=O)c1ccc(-c2ccc3ncnc(NCCN4CCOCC4)c3c2)cc1	33.7%
Cc1ccc(-c2nc(-c3ccccc3)no2)c(Cl)c1	-9.0%
O=C(CCC(=O)OCC(=O)c1ccccc1)NC1CCCCC1	15.7%
N#CC1=C(N)Oc2c(oc(CO)cc2=O)C1c1cccs1 (stereo unspecified)	-0.8%
CCOC(=O)CNC(=O)c1cn(CC)c(=O)c2cc(OC)c(OC)cc12	3.9%
O=C(COc1nc2ccccc2nc1N1CCOCC1)N1CCc2ccccc21	39.1%
Cc1cccc2cc(CN(Cc3ccco3)C(=O)c3cccs3)c(=O)[nH]c12	19.3%
CCOc1ccccc1NC(=O)c1ccc2nccnc2c1	19.2%

(cont.)
SMILES	AmpC inh no det
Cc1ccc(N2CC(C(=O)NCc3ccccn3)CC2=O)cc1 (stereo unspecified)	3.3%
COc1ccc(NC2CS(=O)(=O)CC2NCc2ccco2)cc1 (stereo unspecified)	-3.0%
CC[C@H]1C2=C3C(CC[C@H]4C(OCc5ccc(F)cc5C(F)(F)F)OC[C@](C)([C@@H]34)N(C(=O)OC(C)(C)C)C2)C(COC(C)=O)C1COC(C)=O (stereo partly specified)	127.9%
Cc1cccc(-c2nc(CSCC(=O)N3CCN(Cc4ccc5c(c4)OCO5)CC3)c(C)o2)c1	149.7%
COCCSc1nnc(NS(=O)(=O)Cc2ccccc2)s1	-5.1%
CN(CC(=O)NCc1cccc(F)c1)C(=O)c1ccco1	-5.8%
CC[N+](C)(C)Cc1ccccc1Br	-10.6%[12.8 µM]
COC(=O)c1[nH]c2cc(OC)ccc2c1NC(=O)CN1CCOCC1	7.8%
O=C(O)CCCNCc1ccccc1F	-4.1%
CCOC(=O)c1ccc(NC(=O)CN2CCc3ccccc3C2)cc1	29.0%
C=CCc1ccccc1OCC(O)Cn1ccnc1C (stereo unspecified)	22.9%
c1nc(NC2CCNCC2)c2cc(-c3ccoc3)ccc2n1	14.8%

Screening results from PubChem.
